Biofilm kill mix: mixture kills Candida albicans biofilm cells. C. albicans biofilm persisters + clotrimazole, fluorescence viability; primary screen in compound mixtures of four per well. inhibition, % at 7.6 µM. 0.02% of 120,000 active;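 active means inhibition above 30.3% in the primary screen of four-compound pools, then above 30% when the compound was retested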;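 further: compounds exposed to preformed 24 h biofilms for 48 h; the number belongs to the whole pool; some results filed as inactive read as strong as hits; inactives centre near 12; 0% = biofilm with clotrimazole alone and 100% = kill control; retested singly at about 60 µM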
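Assay system: C. albicans biofilms / Medium: RPMI/MOPS medium, pH 7.0 / Schedule: biofilm formation 24 h, compound exposure 48 h, 37 °C / Measured by: Alamar Blue fluorescence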
Active calls of the source: *. Some of the compounds tested, so the mix of outcomes need not match the whole.

SMILES	Biofilm kill mix
CC(C)NCC(O)COCCOc1ccc(Br)cc1 (stereo not drawn)	-4
CC(=O)Nc1ccc(C(=O)NNS(=O)(=O)c2ccc(C)cc2)cc1	3
Cc1c(C(=O)Nc2ccc(Cl)cc2)c2ccccn2c1CCc1ccncc1	0
CN(C)C(=O)c1ccc(NC(=O)c2ccccc2Sc2ccccc2C#N)cc1	11
CCC1(C)OCC(Cn2c3ccccc3c3ccccc32)O1 (stereo not drawn)	4
O=C(NC(=S)Nc1ccc2c(c1)OCCO2)c1cccc(Br)c1	8
CCn1c(C(=O)O)c(CC(=O)Nc2ccccc2F)c2ccccc21	7
CN1C(=O)c2ccc(C(=O)Nc3nccs3)cc2C1=O	3
COc1ccc(S(=O)(=O)Nc2ccc(S(=O)(=O)N(C)C)cc2)cc1[N+](=O)[O-]	17
NC(N)=NS(=O)(=O)c1ccc(NC(=S)NC(=O)/C=C/c2ccco2)cc1	21
COC(=O)C(C)(C)ONC(=O)Nc1ccc(C)cc1	10
CC(C)CC1(C(=O)NCCc2c[nH]c3ccccc23)C=CCN1C(=O)c1ccccc1 (stereo not drawn)	23
COc1ccc(-n2nnnc2SCC(=O)Nc2cc(OC)c([N+](=O)[O-])cc2C)cc1	5
O=C(CCn1c(=S)oc2ccccc21)Nc1ccccc1F	15
O=C(COC(=O)c1cc(-c2ccc(F)cc2)nc2ccccc12)NCC1CCCO1 (stereo not drawn)	18
COc1ccc(CNC(C)C(=O)Nc2ccc3ccccc3c2)cc1OC (stereo not drawn)	7
O=C(CCc1nnc(CCc2ccccc2)o1)N1CCCC1c1nccs1 (stereo not drawn)	15
N#Cc1cnc(SCC(=O)Nc2ccccc2C(F)(F)F)nc1N	13
CCc1cccc(C)c1NC(=O)CN(C)Cc1ccccc1F	6
Cc1ccc(C(=O)CC(Nc2ccc(F)cc2)c2ccccc2)cc1 (stereo not drawn)	6
N#C/C(=C/c1ccc(-c2cc([N+](=O)[O-])ccc2Cl)o1)C(N)=O	16
Cc1nnc(SCc2cc([N+](=O)[O-])cc3c2OCOC3)[nH]c1=O	2
Cc1ccc(NC(=O)c2cc([N+](=O)[O-])ccc2N2CCOCC2)cc1S(=O)(=O)N(C)C	14
COc1ccc(CC(NC(C)=O)C(=O)N2CCN(C(=O)Nc3cccc(Cl)c3)CC2)cc1OC (stereo not drawn)	13
CCc1ccc(N/C(N)=N/c2nc(CSc3ncccn3)cc(=O)[nH]2)cc1	5
O=C(Cc1cccs1)NNC(=S)NC(=O)c1ccc(F)c(F)c1	24
COc1ccc(-c2nn(-c3ccccc3)cc2/C=C(\C#N)C(N)=O)cc1[N+](=O)[O-]	14
COCCn1c(SCC(=O)N(C)C2CCS(=O)(=O)C2)nc2ccccc2c1=O (stereo not drawn)	22
O=C(NCc1ccccn1)c1ccc(CNS(=O)(=O)c2ccc(F)cc2)cc1	-6
COc1ccc(-c2ccc(C(C)=O)cc2)cc1[C@H]1[C@@H]2C=CCC[C@@]2(C)C(=O)N1Cc1ccccc1	9
NC12CC3CC(CC(C3)C1)C2	3
COc1cccc(N2CC(=O)Nc3c(oc4nc(-c5ccccc5)cc(C)c34)C2=O)c1	9
Cc1nc(N)nc(Nc2ccc(C#N)cc2)c1Br	13
CC1(C)Cc2cccc(OCC(=O)N3CCN(c4ccc([N+](=O)[O-])cc4)CC3)c2O1	15
COC(=O)CNC(=O)COC(=O)/C=C/c1ccc(F)cc1	9
COc1ccc(/C=C(\CC(=O)O)c2nc3ccccc3o2)cc1	8
CCCCNC(=O)CCn1c(=O)c2ccccc2n(Cc2ccccc2C)c1=O	9
COc1ccc2c(c1)OC13CCN(C)CC1C2C(C(=O)c1ccc(F)cc1)C(=O)N3 (stereo not drawn)	-3
COCCNC(=O)CN(C(=O)Cn1nnc2ccccc21)c1ccccc1C	3
Oc1ccc(Cl)cc1C=Nc1ccccc1Br	17
Cc1cc(C)n2c(Br)c(CN3CCCC(C)C3)nc2n1 (stereo not drawn)	13
Cc1cc(N2CCCC2)n2nc(C)nc2n1	15
Cc1cc(NC(=O)C2C3C(=O)N(CC4CCCO4)C(C(=O)NCc4ccccc4)C34C=CC2(C)O4)no1 (stereo not drawn)	12
CCOCN(C(=O)Cn1c(C(C)O)nc2ccccc21)c1c(C)cccc1CC (stereo not drawn)	10
CC(C)c1ccccc1NC(=O)CC1(CC(=O)O)CCCC1	10
COc1ccccc1-n1cnnc1SCC(=O)NCC1CCCO1 (stereo not drawn)	16
CCN(CC)S(=O)(=O)c1cc(NS(=O)(=O)c2ccccc2)ccc1C	9
CCOc1ccc(NC(=O)CN(C)C(=O)C2CCCC2)cc1OCC	-1
CN1CCN(/N=C/c2nc(-c3ccc(Cl)cc3)n3ccccc23)CC1	10
Cc1cccn2c(=O)c(/C=C(\C#N)C(=O)NCc3ccco3)c(N3CCCCCC3)nc12	27

Some values from the list:
Biofilm kill mix with Cc1cc(NC(=O)C2C3C(=O)N(CC4CCCO4)C(C(=O)NCc4ccccc4)C34C=CC2(C)O4)no1 (stereo not drawn) stands at 12
Biofilm kill mix with Cc1cc(N2CCCC2)n2nc(C)nc2n1 stands at 15
Biofilm kill mix with CCOc1ccc(NC(=O)CN(C)C(=O)C2CCCC2)cc1OCC stands at -1
Biofilm kill mix with CC(C)c1ccccc1NC(=O)CC1(CC(=O)O)CCCC1 stands at 10
Biofilm kill mix with CCN(CC)S(=O)(=O)c1cc(NS(=O)(=O)c2ccccc2)ccc1C stands at 9
Biofilm kill mix with Cc1cccn2c(=O)c(/C=C(\C#N)C(=O)NCc3ccco3)c(N3CCCCCC3)nc12 stands at 27

(listing goes on)
SMILES	Biofilm kill mix
Cc1nc2ccccc2nc1OCC(=O)NCC(F)(F)F	6
COc1ccc(OC)c(C2/C(=C(/O)c3ccc(C)cc3)C(=O)C(=O)N2Cc2ccco2)c1 (stereo not drawn)	5
Cc1nn(C)c(C)c1C1Nc2ccccc2C(=O)N1O (stereo not drawn)	20
NC(=O)c1ccc(NC(=O)COC(=O)C2CC(=O)N(Cc3ccccc3)C2)cc1 (stereo not drawn)	14
CN(C(=O)CSc1ncnc2scc(-c3ccccc3)c12)C1CCS(=O)(=O)C1 (stereo not drawn)	7
Cc1cccc(/C(N)=N/OC(=O)COc2ccc(Cl)cc2)c1	-8
CC(C)OC(=O)COc1cc(O)c2c(=O)cc(-c3ccccc3)oc2c1	3
NC(=O)COC(=O)c1ccccc1OCc1ccccc1	8
CC(C)(C)NC(=O)CSc1nc(N)cc(=O)[nH]1	18
CCNC(=O)C(CC(C)C)NC(=O)C(CO)NC(=O)C1CCC(=O)N1 (stereo not drawn)	18

Laid out differently: two of the compounds above.
Compound,Biofilm kill mix
NC(=O)c1ccc(NC(=O)COC(=O)C2CC(=O)N(Cc3ccccc3)C2)cc1 (stereo not drawn),14
CN(C(=O)CSc1ncnc2scc(-c3ccccc3)c12)C1CCS(=O)(=O)C1 (stereo not drawn),7

(more compounds)
SMILES	Biofilm kill mix
Cc1ccsc1/C=C1/SC(N2CC(C)OC(C)C2)=NC1=O (stereo not drawn)	13
O=C(Cc1ccccc1)c1c[nH]c(C(=O)NCCCN2CCOCC2)c1	10
COc1ccc(/C(=C/c2ccc(OC(F)F)c(OC)c2)C(=O)O)cc1OC	7
O=C(c1ccc(Cl)c(S(=O)(=O)N2CCCCCC2)c1)N1CCOCC1	17
CCC(CO)n1c(SCc2cc([N+](=O)[O-])cc3c2OCOC3)nc2ccccc2c1=O (stereo not drawn)	17
O=C(Nc1ccccc1)/C(=C/c1ccc2c(c1)OCO2)NC(=O)c1ccco1	11
Cc1ccc(C)n1-c1cccc(S(=O)(=O)N2CCOCC2)c1	-1
O=C(NCc1ccco1)c1ccc(COc2cccc3ccccc23)cc1	7
Cc1c(Cl)cccc1NC(=O)COC(=O)c1c2c(nc3ccccc13)CCN(Cc1ccccc1)C2	12
CC1CC(=O)Nc2ccccc2N1C(=O)Nc1ccc(F)cc1 (stereo not drawn)	16
CC(C)c1cc(C(C)C)c(S(=O)(=O)NNC(=O)c2ccncc2)c(C(C)C)c1	9
NS(=O)(=O)c1ccc(NC(=O)COC(=O)CCC2CCCC2)cc1	12
COc1ccccc1NC(=S)NCc1ccc2c(c1)OCO2	22
CCCOC(=O)c1c(N)sc(C(=O)OCC)c1C	15
CCOC(=O)N1CCN(C(=S)Nc2ccc(C)c(C)c2)CC1	9
O=Cc1ccc(OCc2cn3ccccc3n2)cc1	3
COC(=O)c1ccc(C)c(NC(=O)c2ccc(Cl)c([N+](=O)[O-])c2)c1	12
CCCNC(=S)N1CC2(C)CN(C(=O)C(=O)OC)CC(C)(C1)C2=O	7
O=C(COC(=O)c1ccc(Cl)nc1)Nc1ccccc1OC(F)F	7
O=C(/C=C/c1ccccc1)N1CCN(CCN2C(=O)c3cccc4cccc(c34)C2=O)CC1	12

Shown field by field: entries from further up.
O=Cc1ccc(OCc2cn3ccccc3n2)cc1
  Biofilm kill mix = 3
COC(=O)c1ccc(C)c(NC(=O)c2ccc(Cl)c([N+](=O)[O-])c2)c1
  Biofilm kill mix = 12
CCCNC(=S)N1CC2(C)CN(C(=O)C(=O)OC)CC(C)(C1)C2=O
  Biofilm kill mix = 7
O=C(COC(=O)c1ccc(Cl)nc1)Nc1ccccc1OC(F)F
  Biofilm kill mix = 7

Other records.
SMILES	Biofilm kill mix
CN(C)S(=O)(=O)c1cccc(-c2nnc(SCC(=O)NCCCCCC(=O)O)n2-c2ccc(F)cc2)c1	11
Cc1nc2c(-c3ccccc3)c(C)[nH]n2c(=O)c1Cc1ccccc1	-2
C=CCc1ccccc1OCCNCc1ccccc1	13
COc1ccc(-n2c(-c3ccc(Br)cc3)c[n+]3c2CCCCC3)cc1	17
O=C(O)c1cc(N/N=C/c2ccc3c(c2)OCO3)ccc1Cl	-2
CCOc1ncccc1C(=O)N1CCN(c2cc(Cl)ccc2C)CC1	9
CCOC(=O)c1cc2c(ccn2C)n1Cc1ccc(C#N)cc1	13
Cc1ccc(CNC(=O)COc2ccc3c(c2)CCC3)cc1	-1
Cc1ccc(Nc2nc(CSc3nnc(-c4cccnc4)n3-c3ccccc3F)cs2)cc1	11
COc1ccc(N2CCN(CCCNC(=O)C3CCC(CNc4nc(=S)[nH]c5ccccc45)CC3)CC2)cc1 (stereo not drawn)	17
Cc1cc(C)cc(NS(=O)(=O)c2ccc(NC(=S)NC(=O)c3cccs3)cc2)c1	8
COc1ccc(/C=N/NC(=O)Cn2nc(C)c([N+](=O)[O-])c2C)cc1	9
CC(CCc1ccc(O)cc1)NC1C2CC3CC(C2)CC1C3 (stereo not drawn)	11
COc1ccc(/C=N/NC(=O)Cn2c(Cc3ccc(OC)c(OC)c3)nc3ccccc32)cc1OC	16
COc1ccc(Cc2nnc(N/N=C/c3ccc(N(C)C)cc3)[nH]c2=O)cc1OC	13
Fc1cccc(NC(=S)N2CCCC2)c1	15
O=C(COC(=O)c1ccc2c(=O)n3c(nc2c1)CCC3)Nc1ccc(OC(F)F)cc1	8
COc1ccc(-c2n[nH]c(=S)n2-c2ccc3c(c2)OCCO3)cc1OC	-8
Cc1cc(C)c(-n2c(SCc3nc4ccccc4s3)n[nH]c2=O)c(C)c1	13
Cc1ccc2oc(-c3ccco3)cc(=O)c2c1	0
COc1ccc(NC(=O)Cn2cnc3ccccc3c2=O)cc1OC	11
COc1ccc(C(=O)N[C@H](C(=O)OCC(=O)NC(=O)c2cccn2C)C(C)C)cc1	13
Cc1cc(C)n(CC(C)C(=O)O)n1 (stereo not drawn)	5
Cc1ccc(O)c(NC(=S)NC(=O)CC(C)C)c1	6
O=C(COC(=O)/C(=C/c1cccs1)c1cccs1)NC(c1ccccc1)c1ccccc1	18
COc1cc(NS(=O)(=O)c2ccc(NC(=S)NC(=O)c3sc4ccccc4c3Cl)cc2)nc(OC)n1	4
Cc1ncc([N+](=O)[O-])n1Cc1ccc(F)cc1	14
COc1ccc(/C=C/C(=O)OCC(=O)NC(=O)NC(C)(C)C)cc1	19
CCn1cc(CNC(=O)/C=C/c2ccc([N+](=O)[O-])cc2)cn1	5
COc1cc(OC)c2c(-c3ccccc3)cc(=O)oc2c1C(CC(=O)N1CCCC1)c1ccc2c(c1)OCO2 (stereo not drawn)	15
O=C(/C=C/c1c(Cl)nc2ccccn12)Nc1ccc(F)cc1	19
Cc1ccc2nc(N(CCCN(C)C)C(=O)c3cc4ccccc4oc3=O)sc2c1	13
Cc1ccc(/C=C/C(=O)NC2CCCCCCC2)o1	16
CC(C)(C)c1ccc(OCC(=O)Nc2ccc3c4c(cccc24)C(=O)NC3=O)cc1	11
CCN(c1ccccc1)c1nc(=O)c2cccnc2s1	29
COC(=O)c1cc(NC(=O)c2ccc(F)cc2)cc(C(=O)OC)c1	22
NS(=O)(=O)c1ccc(NC(=O)COC(=O)C2(c3ccccc3F)CCCC2)cc1	14
CC(CCCC(C)(C)O)CC1C2=C(CCCC2=O)OC2=C1C(=O)CCC2 (stereo not drawn)	5
FC(F)Oc1ccccc1/C=N/n1cnc2ccccc21	6
CC(C)CC(=O)NS(=O)(=O)c1ccc(NC(=O)c2ccco2)cc1	7

5 entries drawn at random from those above, as already listed:
SMILES	Biofilm kill mix
CC(CCCC(C)(C)O)CC1C2=C(CCCC2=O)OC2=C1C(=O)CCC2 (stereo not drawn)	5
CC(C)CC(=O)NS(=O)(=O)c1ccc(NC(=O)c2ccco2)cc1	7
Cc1ccc2nc(N(CCCN(C)C)C(=O)c3cc4ccccc4oc3=O)sc2c1	13
FC(F)Oc1ccccc1/C=N/n1cnc2ccccc21	6
Cc1ccc(/C=C/C(=O)NC2CCCCCCC2)o1	16

Further compounds follow:
SMILES	Biofilm kill mix
Clc1ccccc1-c1ccc(/C=N/Nc2nncc(-c3ccccc3)n2)o1	7
COc1ccccc1C(=O)N1CCC(N2CCN(c3ccccc3OC)CC2)CC1	32
C=C(C)COc1ccc(-c2[nH]ncc2Oc2ccc(OC)cc2)c(O)c1	34
CCOCCCNCc1ccc(OCCC(C)C)c(OC)c1	15

Screens (PubChem BioAssay)
